High-throughput results as filed in PubChem BioAssay.
Vaccinia mCherry: qHTS for Stage-Specific Inhibitors of Vaccinia Orthopoxvirus: mCherry Reporter Primary qHTS | Vaccinia virus mCherry reporter infection, fluorescence; about a quarter of the inactives have no number | Potency, µM (doses to about 36.5 µM), for the others: top-dose activity change, negative = inhibition, usual class: inhibitors | hit rate 0.63% among 310,000; active = well fitted inhibition curve with a large enough effect; inconclusive = small, poorly fitted or top-dose-only effect; inactive = no such curve, though single readings can be large or run the other way; tested in A549 cells; further: nearly all actives have a fitted effect of over 35% in size; inactives centre near -10
Vaccinia Venus: qHTS for Stage-Specific Inhibitors of Vaccinia Orthopoxvirus: Venus Reporter Primary qHTS. Vaccinia virus Venus reporter expression, fluorescence. Potency, µM (series often up to 36.5 µM), for inactives: at the top dose activity change, negative = inhibition, hits mostly inhibitors. hit rate 0.46% among 330,000. AID 720580, 2013; active means well fitted inhibition curve with a large enough effect; inconclusive means small, poorly fitted or top-dose-only effect; inactive means no such curve, though single readings can be large or run the other way; tested in A549 cells; further: nearly all actives have a fitted effect of over 30% in size; inactives centre near -10
An asterisk follows results filed as active; i = inactive; ? = inconclusive; nt = no result given; & = joins results of further samples; [ ] = remark or other dose. On the % scale 0 is the no-effect control and ±100 the full control effect; potency means the concentration at half of the fitted maximal effect.

The opening 4 records, to show the layout:
Values run as follows: Vaccinia mCherry, Vaccinia Venus
CN1CCN(c2ncnc3c2[nH]c2ccc(F)cc23)CC1
  -9%, -14%
C=CCC[C@@H](Cc1ccc(F)cc1)C(=O)OC[C@H](Cc1c[nH]c2ccccc12)NC(=O)[C@@H](CC=C)CC(=O)N(CCO)Cc1ccccc1
  ?, ?
Cn1cccc1/C=N/NC(=O)c1cc2ccccc2cc1O
  ?, -12%
COC(=O)c1cc(C(=O)N2CCN(c3ccccc3OC)CC2)cc([N+](=O)[O-])c1
  2.8µM*, -16%

This part in full, from the start:
Values run as follows: Vaccinia mCherry, Vaccinia Venus
CN1CCN(c2ncnc3c2[nH]c2ccc(F)cc23)CC1
  -9%, -14%
C=CCC[C@@H](Cc1ccc(F)cc1)C(=O)OC[C@H](Cc1c[nH]c2ccccc12)NC(=O)[C@@H](CC=C)CC(=O)N(CCO)Cc1ccccc1
  ?, ?
Cn1cccc1/C=N/NC(=O)c1cc2ccccc2cc1O
  ?, -12%
COC(=O)c1cc(C(=O)N2CCN(c3ccccc3OC)CC2)cc([N+](=O)[O-])c1
  2.8µM*, -16%
CC(C)c1cc(C(=O)NNC(=S)NC2CCCCC2)cs1
  -28%, -25%
O=C(Nc1cc(Cl)ccc1O)C1CC(c2c(F)cccc2Cl)=NO1 (stereo not given)
  -21%, -17%
CCOC(=O)c1cn(CC)c2cc3c(cc2c1=O)OCO3
  -12%, -7%
COc1ccc(CNC(c2ccccc2)c2ccc(Cl)cc2)cc1 (stereo not given)
  2%, 14%
CC(C)C(=O)Nc1nnc(SCC(=O)NCc2ccco2)s1
  -8%, -2%
CCc1nc(Nc2ccccc2O)c2oc3ccccc3c2n1
  -4%, -18%
CCOC(=O)C(NC(=O)c1ccc(OC)cc1)(N1CCOCC1)C(F)(F)F (stereo not given)
  -9%, -4%
Cc1ccc2cc(C=O)c(N3CCOCC3)nc2c1C
  -21%, -11%
O=C(Nc1cc(F)ccc1F)C1CCN(c2nc3ccccc3n3cccc23)CC1
  1%, -6%
COc1ccc(-n2c(NN)nc3sc4c(c3c2=O)CCCC4)cc1
  -6%, -20%
COc1ccc(OC)c2sc(NC(=O)CCSc3ccccc3)nc12
  -10%, -22%
CCc1nn(CC(=O)Nc2ccc(NC(C)=O)cc2)c(=O)c2cc3sccc3n12
  ?, ?
CCCN1CCC(=NNc2ccc(S(N)(=O)=O)cc2[N+](=O)[O-])CC1
  -7%, -7%
NC(=S)N/N=C/c1ccccc1[N+](=O)[O-]
  2µM*, 2.2µM*
CS(=O)(=O)N(CC(=O)N1CCCC1)c1ccc(Cl)cc1
  -11%, -12%
O=C(Nc1nnc(C(F)(F)F)s1)c1c(F)cccc1F
  i, -7%
O=c1/c(=C/c2ccco2)sc2n1CN(c1cccc(Br)c1)CN=2
  i, -5%
COCCn1cnc2c1c(=O)n(CC(=O)Nc1cc(C)on1)c(=O)n2Cc1ccccc1
  nt, -19%
CC(=C\C(=O)O)/C(=C/c1ccc(C)o1)C(=O)O
  -14%, -8%
CCCN(Cc1cccs1)C(=O)Nc1ccc(F)c(Cl)c1
  -2%, -6%
COc1cc2oc(=O)c(CC(=O)N3C[C@H]4C[C@@H](C3)c3cccc(=O)n3C4)c(C)c2cc1Cl
  -8%, 4%
CCOC(=O)CSc1nc2c(c(=O)[nH]c(=O)n2C)n1CCc1ccccc1
  nt, -13%
CC1(C(=O)O)CCC(C(=O)NNC(=O)c2ccccc2Cl)C1(C)C (stereo not given)
  i, 1%
COCCCNc1nc(NCc2cccc(Cl)c2)c2cnn(C)c2n1
  -27%, -16%
N#CCCN1CCN(S(=O)(=O)c2ccc(S(=O)(=O)N3CCCC3)cc2)CC1
  -9%, -10%
CC(C)NCCCOc1ccc(Cl)cc1Br
  i, -9%
COCCNC(=O)C1CCCN(C(=O)c2ccc3ccccc3n2)CC1 (stereo not given)
  22%, -3%
COCC(=O)Nc1cc([N+](=O)[O-])ccc1OC
  -17%, -5%
O=C(NNC(=O)C1CCN(S(=O)(=O)c2ccccc2C(F)(F)F)CC1)c1ccccc1O
  -11%, -20%
C=CCn1c(SC2CCOC2=O)nc2sc(CC)cc2c1=O (stereo not given)
  nt, -24%
N#Cc1ccc(C23CC4(C2)[C@H](CN(CC2CCCCC2)[C@@H]4c2ccccc2)C3c2ccc(Cl)nc2)cc1 (stereo not given in full)
  i, -1%
CC1CCN(CC(=O)N2CCCc3c2c(=O)oc2ccc(OCc4ccccc4)cc32)CC1
  -13%&-25%, -23%&-24%
CCN(CCCNC(=O)CNC(=O)c1nn(-c2ccc(OC)cc2OC)c(=O)c2ccccc12)c1cccc(C)c1
  ?, -26%
O=C(Nc1nc2c(s1)CCCC2)Oc1ccccc1
  nt, -13%
C#Cc1ccc([C@@H]2C=C(C(=O)NC3CC3)O[C@H](OCCCCO)C2)cc1
  -3%, 0%
Cc1nc2ccccc2c(C(=O)O)c1-c1ccccn1
  i, 2%
Cc1ccc(CN2CCC3CCC(C3)C2)c(O)c1 (stereo not given)
  -11%, -8%
CCC(Oc1nc2ccccc2nc1-c1ccccc1NC(C)=O)C(=O)c1ccccc1 (stereo not given)
  -14%, -10%
Cc1cccc(OCCNc2ccc(C(F)(F)F)cc2[N+](=O)[O-])c1
  -14%, -12%
CCN(CC)C(=O)C1=C(C)N(Cc2ccc(F)cc2)C(=O)C(CC(=O)NCc2cccs2)C1 (stereo not given)
  -6%, -16%
Cc1cccc(NCc2cc(Cl)ccc2O)n1
  -26%, -12%
CC(CNC(=O)COc1ccccc1)OC(=O)Nc1ccc(Cl)c(Cl)c1 (stereo not given)
  -18%, -24%
COCCN1C(=O)N[C@@H](c2cccs2)C(C(=O)OC)=C1C
  i, -2%
CCOC(=O)c1nnc(-c2ccccc2)nc1Oc1ccc(Cl)cc1
  nt, 2%
O=C(CSc1nc2ccccc2nc1Cc1ccc(F)cc1)Nc1ccc2c(c1)OCO2
  ?, ?
COc1cc(/C=C(/C#N)c2nc3ccccc3[nH]2)ccc1Oc1ncccc1[N+](=O)[O-]
  ?, -28%
O=S1(=O)CCO[C@H]2CCCC[C@@H]2N1Cc1ccc(Cl)cc1
  10µM*, ?
C#CCNC(=O)c1cc2c(Br)ccc(Br)c2nc1N
  -2%, -3%
CCc1cc(-c2nnn(-c3cc(C(C)C)ccc3C)c2CC)ccc1-c1cn(CCc2c[nH]c3ccccc23)nn1
  ?, -29%
CCOc1ccc(CNS(=O)(=O)c2ccc3[nH]c4c(c3c2)CCCC4)cc1OC
  -26%, -18%
COCCCN1C(=O)/C(=C/c2ccc(CNS(=O)(=O)c3ccccc3)o2)C(C(=O)OC)=C1C
  ?, -15%
CN(C)CCCNC(=O)/C(=C\c1ccc(-c2ccc(Br)cc2)o1)NC(=O)c1ccccc1
  11µM*, 13µM*
COc1cc(/C(C)=C/c2ccccc2)c2c(c1)oc1ccccc12
  -2%, -8%
CCOc1ccc(NC(=O)c2cnc(Nc3ccccc3OC)c3ccccc23)cc1
  -5%, -4%
Cc1ccc(NC(=O)CN(C)CC(=O)Nc2ccc3c(c2)OCO3)cc1
  -11%, -20%
CCOC(=O)C(=O)Nc1cc(C)nn1-c1nc2ccccc2[nH]1
  -7%, -7%

In a second layout: entries from further up
| smiles | Vaccinia mCherry | Vaccinia Venus |
| --- | --- | --- |
| CCc1cc(-c2nnn(-c3cc(C(C)C)ccc3C)c2CC)ccc1-c1cn(CCc2c[nH]c3ccccc23)nn1 | ? | -29% |
| CCOc1ccc(CNS(=O)(=O)c2ccc3[nH]c4c(c3c2)CCCC4)cc1OC | -26% | -18% |
| COCCCN1C(=O)/C(=C/c2ccc(CNS(=O)(=O)c3ccccc3)o2)C(C(=O)OC)=C1C | ? | -15% |
| CN(C)CCCNC(=O)/C(=C\c1ccc(-c2ccc(Br)cc2)o1)NC(=O)c1ccccc1 | 11µM* | 13µM* |
| COc1cc(/C(C)=C/c2ccccc2)c2c(c1)oc1ccccc12 | -2% | -8% |
| CCOc1ccc(NC(=O)c2cnc(Nc3ccccc3OC)c3ccccc23)cc1 | -5% | -4% |
| Cc1ccc(NC(=O)CN(C)CC(=O)Nc2ccc3c(c2)OCO3)cc1 | -11% | -20% |

More compounds.
Values run as follows: Vaccinia mCherry, Vaccinia Venus
O=C(Cn1nc(-c2ccc3c(c2)OCCO3)ccc1=O)Nc1ccc(-n2cnnn2)cc1
  -16%, -4%
COc1cc(/C=N/NC(=O)C2C3CCCCC32C)cc(Br)c1O (stereo not given)
  -18%, -14%
COc1ccc(NC(=S)N2CCN(C(=O)c3ccco3)CC2)cc1OC
  i, -12%
COc1cccc(C(=O)Nc2ccc(-n3nncc3-c3ccc(Br)cc3)cc2)c1OC
  -3%, -16%
O=C(CCCn1c(SCc2ccccc2F)nc2ccccc2c1=O)NCC1CCCO1 (stereo not given)
  i, -11%
CC(=O)NC(c1ccc(N(C)C)cc1)c1cc(Cl)c2cccnc2c1O (stereo not given)
  3.2µM*, ?
CC(=O)c1cccc(-c2ccnc3c2CC(C(=O)NCCc2ccccc2)O3)c1 (stereo not given)
  ?, -22%
Cc1cc(OC(=O)c2ccc3ccccc3c2)c([N+](=O)[O-])c(=O)[nH]1
  0%, -6%
O=C1NC(=O)C(CCc2ccncc2)(Cc2ccc([N+](=O)[O-])cc2)C(=O)N1
  -15%, 4%
CCCc1c(C(=O)N/N=C/c2ccc(-c3ccccc3)cc2)nnn1-c1nonc1N
  -10%, -7%
CN(C)S(=O)(=O)c1cc(NC(=O)Cn2ccsc2=N)ccc1Cl
  i, -7%
O=c1[nH]n2c(=O)c3c([nH]c2c1N=Nc1cccc(Cl)c1)CCCC3
  -16%, -3%
Cc1ccc(N/N=C(/Sc2nnnn2-c2ccccc2)C(=O)c2ccccc2)cc1
  -26%, -17%
CC(=O)c1cccc(NC(=O)CSc2nnc3ccc(-c4ccc(Br)cc4)nn23)c1
  -19%, ?
COc1cc2ccc(NC(C)=O)cc2cc1OC
  -17%, -20%
COc1ccccc1N(C)S(=O)(=O)c1ccc(C(=O)Nc2ccc(N3CCOCC3)cc2)cc1
  ?, ?
COc1ccc(/C=N/Nc2ncnc3c2[nH]c2ccc(C)cc23)c(OC)c1OC
  -14%[7.34 µM], -10%[7.34 µM]
C=CCn1c(SCC(=O)Nc2ccc(F)cc2)nnc1-c1cnccn1
  -19%, -25%
COc1ccc(-c2coc3c2c(C)cc2oc(=O)cc(C)c23)cc1
  -1%, -7%
COc1ccc(C(=O)/C=C/c2ccc(O)cc2)c(O)c1C/C=C(\C)CCC=C(C)C
  -4%, -4%
CCc1ccccc1NC(=O)COC(=O)c1cccs1
  5%, -3%
OCCC1CN(CCCn2cccn2)CCN1C1CCCCC1 (stereo not given)
  i, -10%
COc1cc(NC(=O)c2noc3c2CC(C(C)(C)C)CC3)cc(OC)c1OC (stereo not given)
  -22%, -9%
COc1cc2c(cc1OC)C(C)N(C(=O)[C@@H](NC(=O)c1ccccc1)C(C)C)CC2 (stereo not given in full)
  16%, -11%
Cc1ccc(NC(=O)NC(C)c2c(-n3cccc3)sc(C)c2C)c(C)c1 (stereo not given)
  -19%, -15%
CCC(=O)N1c2ccccc2CC1C(=O)NCCN1CCN(c2cccc(C(F)(F)F)c2)CC1 (stereo not given)
  -14%, -13%
Cc1cccc(/C=N/NC(=O)c2ccc(NC(=O)c3cccc(Cl)c3)cc2)n1
  ?, -28%
CN1CCN(C(=O)C2CCC(C)(C(=O)O)C2(C)C)CC1 (stereo not given)
  -10%, -8%
O=C(NCc1cccnc1)[C@@H]1CC=C[C@@H]2CCN(C3CCCCC3)C(=O)[C@@H]21
  -23%, -11%
Cc1nn(-c2ccccc2)c(N2CCCC2)c1/C=N/NC(=O)c1ccccc1O
  -14%, -16%
COc1ccccc1NC(=O)c1sc2nc(C)c(C(=O)Nc3ccc(C)cc3C)c(-c3ccco3)c2c1N
  i, -19%
CC(C)c1ccc(C2CC(c3ccc(Br)cc3)=NN2C(N)=S)cc1 (stereo not given)
  -23%, ?
O=[N+]([O-])c1ccc(N2CCN(c3ccccc3F)CC2)c(S(=O)(=O)N2CCOCC2)c1
  i, -14%
CC12CCC(C(=O)Nc3ccccc3Cl)([C@H](Br)C1=O)C2(C)C (stereo not given in full)
  -25%[7.34 µM], -4%[7.34 µM]
Nc1nonc1-n1nnc(C(=O)N/N=C/c2ccco2)c1CSc1ccc(Cl)cc1
  -9%, -25%
COCCNC(=O)/C(C#N)=C/c1cc(Br)c(O)c(OC)c1
  -8%, -10%
CCOc1ccccc1C(=O)Nc1cc(Cl)ccc1O
  ?, ?
O=C(c1ccc2c(=O)n(Cc3ccco3)c(=S)[nH]c2c1)N1CCN(c2ccccc2)CC1
  -22%, -16%
O=C(CC(Cc1ccccc1)C(=O)O)Nc1ccc(Cl)c(Cl)c1 (stereo not given)
  -21%, -20%
COC(=O)c1ccc2[nH]c3cccc(/C(=C/c4ccccc4)c4ccccc4)c3c2c1
  -12%, -29%
Cc1ccccc1Cn1c(SCc2ccc(C(=O)NCc3cccs3)cc2)nc2ccncc21
  ?, -20%
COCCCNC(=O)CSc1ccsc1[N+](=O)[O-]
  -10%, -12%
COc1ccc(C(=O)Nc2nnc(Cc3ccc(OC)c(OC)c3)s2)cc1
  -23%, -9%
